Screening results: PubChem, Broad Institute
Env fusion inh = HIV envelope-mediated fusion inhibition; HeLa-JRFL Env/CEM21 cell fusion, luciferase; inhibition, % at 12.3 µM; 360,000 compounds, 1.1% hits; AID 651610;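 active = mean replicate inhibition score of at least 50 and every replicate individually at or above 50; inconclusive = only one of the two criteria met; inactive = mean below 50 and not all replicates reaching 50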;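 also: 0% = plate neutral controls and 100% = maraviroc near 300 nM; one replicate is shown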
UUG fidelity = alters start codon recognition fidelity in yeast; 350,000 compounds, 0.13% hits; S. cerevisiae UUG-firefly luciferase reporter, luminescence/redox ratio; activity score, % at 18.7 µM;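 active = replicate mean at a twofold rise or more, about +100% in these data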;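 also: firefly luciferase made from a UUG start codon reports start codon fidelity; reporter light over untreated wells divided by growth signal over untreated wells; some hits fall short of that in this replicate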
* = called active by the depositor; ? = inconclusive; [ ] = remark or other dose.

no.	Env fusion inh	UUG fidelity	Structure
1	3[16.7 µM]	-12	COc1ccc(NC(=O)Nc2ccc3c(c2)C(=O)N([C@H](C)CO)C[C@@H](C)[C@@H](CN(C)S(=O)(=O)c2ccc(C)cc2)OCCCC[C@H](C)O3)cc1
2	-4[16.7 µM]	14	COc1ccc(NC(=O)Nc2ccc3c(c2)C(=O)N([C@@H](C)CO)C[C@H](C)[C@@H](CN(C)S(=O)(=O)c2ccc(C)cc2)OCCCC[C@@H](C)O3)cc1
3	36[16.7 µM]	20	Cc1noc(C)c1S(=O)(=O)Nc1ccc2c(c1)C(=O)N([C@@H](C)CO)C[C@@H](C)[C@@H](CN(C)Cc1ccc3c(c1)OCO3)OCCCC[C@@H](C)O2
4	-60[16.7 µM]	2	Cc1noc(C)c1S(=O)(=O)N(C)C[C@@H]1OCCCC[C@H](C)Oc2ccc(NC(=O)NC3CCCCC3)cc2C(=O)N([C@H](C)CO)C[C@@H]1C
5	16[16.7 µM]	12	C[C@@H]1CN([C@@H](C)CO)C(=O)c2cc(NC(=O)C3CCCCC3)ccc2O[C@@H]1CN(C)Cc1ccc(C(=O)Nc2ccccc2N)cc1
6	0[16.7 µM]	-2	CCCC#Cc1ccc2c(c1)O[C@@H](CN(C)C(=O)c1cnccn1)[C@H](C)CN([C@H](C)CO)S2(=O)=O
7	1[16.7 µM]	7	C[C@H]1CN([C@@H](C)CO)C(=O)c2cc(NC(=O)Nc3ccccc3)ccc2O[C@H]1CN(C)Cc1ccc(Oc2ccccc2)cc1
8	-18[16.7 µM]	64	C[C@@H]1CN([C@H](C)CO)C(=O)c2cc(NC(=O)Nc3ccc(F)cc3)ccc2O[C@@H]1CN(C)CC1CCCCC1
9	-7[16.7 µM]	-7	Cc1ccc(S(=O)(=O)Nc2ccc3c(c2)C(=O)N([C@H](C)CO)C[C@@H](C)[C@H](CN(C)S(C)(=O)=O)O3)cc1
10	-17[16.7 µM]	-14	C[C@@H]1CN([C@H](C)CO)C(=O)Cc2cc(NC(=O)C3CCCCC3)ccc2O[C@H]1CN(C)S(=O)(=O)c1cn(C)cn1

Gathered by group, the entries above with an aryl methoxy group (2)
no.	Env fusion inh	UUG fidelity	Structure
1	3[16.7 µM]	-12	COc1ccc(NC(=O)Nc2ccc3c(c2)C(=O)N([C@H](C)CO)C[C@@H](C)[C@@H](CN(C)S(=O)(=O)c2ccc(C)cc2)OCCCC[C@H](C)O3)cc1
2	-4[16.7 µM]	14	COc1ccc(NC(=O)Nc2ccc3c(c2)C(=O)N([C@@H](C)CO)C[C@H](C)[C@@H](CN(C)S(=O)(=O)c2ccc(C)cc2)OCCCC[C@@H](C)O3)cc1

Additional structures:
no.	Env fusion inh	UUG fidelity	Structure
11	-21[16.7 µM]	-4	COc1ccc(NC(=O)Nc2ccc3c(c2)C(=O)N([C@@H](C)CO)C[C@H](C)[C@H](CN(C)Cc2ccc(C(=O)Nc4ccccc4N)cc2)O3)cc1
12	-27[16.7 µM]	5	C[C@H]1CN([C@@H](C)CO)C(=O)Cc2cc(NS(=O)(=O)c3cccs3)ccc2O[C@@H]1CN(C)Cc1ccc(-c2ccccc2)cc1
13	-8[16.7 µM]	-15	O=C(C[C@H]1CC[C@H](NC(=O)C2CCC2)[C@@H](CO)O1)NCCCN1CCOCC1
14	15[16.7 µM]	-4	O=C(C[C@@H]1CC[C@H](NC(=O)c2ccc3c(c2)OCO3)[C@@H](CO)O1)NC1Cc2ccccc2C1
15	0[16.7 µM]	-6	O=C(NCC[C@H]1CC[C@H](NC(=O)c2ccccc2F)[C@@H](CO)O1)c1cnccn1
16	-19[16.7 µM]	11	C[C@@H]1CN([C@H](C)CO)C(=O)c2cc(NC(=O)Cc3ccccc3)ccc2O[C@@H](C)CCCCO[C@H]1CN(C)C(=O)Nc1ccc(F)cc1
17	-37[16.7 µM]	5	COc1ccc(CN(C)C[C@H]2OCCCC[C@H](C)Oc3ccc(NC(=O)Nc4ccc(F)cc4)cc3C(=O)N([C@H](C)CO)C[C@@H]2C)cc1
18	-5[16.7 µM]	22	COc1ccccc1NC(=O)N(C)C[C@H]1Oc2ncc(Br)cc2C(=O)N([C@@H](C)CO)C[C@H]1C
19	21[16.7 µM]	5	CC(C)NC(=O)Nc1cccc2c1O[C@H](CN(C)C(=O)Nc1ccccc1)[C@@H](C)CN([C@@H](C)CO)C2=O
20	5[16.7 µM]	-1	O=C(C[C@@H]1CC[C@H](NS(=O)(=O)c2ccc(F)cc2)[C@@H](CO)O1)NCCc1ccncc1

Profiles, looked up by structure.
Shown for COc1ccc(CN(C)C[C@H]2OCCCC[C@H](C)Oc3ccc(NC(=O)Nc4ccc(F)cc4)cc3C(=O)N([C@H](C)CO)C[C@@H]2C)cc1 = Env fusion inh: -37[16.7 µM]; UUG fidelity: 5
Shown for O=C(C[C@@H]1CC[C@H](NS(=O)(=O)c2ccc(F)cc2)[C@@H](CO)O1)NCCc1ccncc1 = Env fusion inh: 5[16.7 µM]; UUG fidelity: -1

New compounds follow:
no.	Env fusion inh	UUG fidelity	Structure
21	13[16.7 µM]	13	CC(C)NC(=O)Nc1cccc2c1O[C@H](CN(C)S(=O)(=O)c1ccc(F)cc1)[C@@H](C)CN([C@@H](C)CO)C2=O
22	27[16.7 µM]	-4	C[C@@H]1CCCCO[C@@H](CN(C)S(=O)(=O)c2ccc(F)cc2)[C@@H](C)CN([C@H](C)CO)C(=O)c2cc(NS(C)(=O)=O)ccc2O1
23	5[16.7 µM]	-3	COc1ccccc1-c1cnc2c(c1)C(=O)N([C@H](C)CO)C[C@@H](C)[C@H](CN(C)C(=O)c1ccncc1)O2
24	2[16.7 µM]	-11	O=C(C[C@H]1C[C@H]2c3cc(NS(=O)(=O)c4ccc(F)cc4)ccc3O[C@H]2[C@@H](CO)O1)N1CCOCC1
25	-8[16.7 µM]	9	Cc1noc(C)c1S(=O)(=O)Nc1cccc2c1O[C@H](CN(C)C(=O)Nc1ccc(C(F)(F)F)cc1)[C@H](C)CN([C@H](C)CO)C2=O
26	6[16.7 µM]	1	CC(=O)N(C)C[C@@H]1Oc2ncc(C#Cc3cccnc3)cc2C(=O)N([C@H](C)CO)C[C@H]1C
27	9[16.7 µM]	-1	C/C=C/c1ccc2c(c1)O[C@H](CN(C)C(=O)Nc1ccc(F)cc1)[C@H](C)CN([C@@H](C)CO)S2(=O)=O
28	?	-6	C[C@@H](NC(=O)C[C@@H]1CC[C@H]2[C@@H](COC[C@@H](O)CN2Cc2ccc(C(F)(F)F)cc2)O1)c1ccccc1
29	-25[16.7 µM]	0	C[C@H](CO)N1C[C@H](C)[C@H](CN(C)C(=O)NC2CCCCC2)OCCCC[C@H](C)Oc2ccc(NS(=O)(=O)c3ccccc3)cc2C1=O
30	-12[16.7 µM]	7	C[C@@H]1CCCCO[C@H](CN(C)C(=O)C2CCCCC2)[C@@H](C)CN([C@@H](C)CO)C(=O)c2cc(NS(=O)(=O)c3cn(C)cn3)ccc2O1
31	-15[16.7 µM]	5	COCC#Cc1ccc2c(c1)O[C@@H](CN(C)CC1CCOCC1)[C@H](C)CN([C@@H](C)CO)S2(=O)=O
32	1[16.7 µM]	-5	COc1ccc(S(=O)(=O)Nc2cccc3c2O[C@@H](CN(C)Cc2ccc(Oc4ccccc4)cc2)[C@H](C)CN([C@H](C)CO)C3=O)cc1
33	-7[16.7 µM]	3	C[C@H]1CN([C@@H](C)CO)C(=O)Cc2cc(NC(=O)C3CCCCC3)ccc2O[C@H]1CN(C)C(=O)Nc1ccc(F)cc1
34	-7[16.7 µM]	30	Cc1ccc(S(=O)(=O)Nc2ccc3c(c2)C(=O)N([C@H](C)CO)C[C@H](C)[C@@H](CN(C)C(=O)c2ccccc2)OCCCC[C@@H](C)O3)cc1
35	-7[16.7 µM]	-6	COCC#Cc1ccc2c(c1)O[C@H](CN(C)S(=O)(=O)c1ccc(F)cc1)[C@@H](C)CN([C@@H](C)CO)S2(=O)=O
36	-11[16.7 µM]	3	CCCN(C)C[C@H]1OCCCC[C@H](C)Oc2ccc(NC(=O)CCC(F)(F)F)cc2C(=O)N([C@H](C)CO)C[C@@H]1C
37	4[16.7 µM]	-7	Cc1ccc(S(=O)(=O)N(C)C[C@@H]2OCCCC[C@@H](C)Oc3ccc(NC(=O)Nc4c(C)noc4C)cc3C(=O)N([C@H](C)CO)C[C@H]2C)cc1
38	4[16.7 µM]	-12	CCCN1C[C@H](C)[C@H](OC)CN(C)C(=O)c2ccc(NC(=O)C3CCC3)cc2OC[C@H]1C
39	5[16.7 µM]	27	Cc1noc(C)c1NC(=O)Nc1ccc2c(c1)C(=O)N([C@@H](C)CO)C[C@H](C)[C@@H](CN(C)S(C)(=O)=O)OCCCC[C@H](C)O2
40	9[16.7 µM]	7	C[C@@H]1CN([C@H](C)CO)C(=O)c2cccc(NC(=O)Nc3ccccc3)c2O[C@H]1CN(C)Cc1ccc(C(F)(F)F)cc1
41	11[16.7 µM]	13	O=C(NCC[C@@H]1CC[C@H](NC(=O)c2ccc3c(c2)OCO3)[C@H](CO)O1)Nc1ccc(Cl)cc1
42	-30[16.7 µM]	0	C[C@@H]1CN([C@@H](C)CO)C(=O)c2cc(NC(=O)NC3CCCCC3)ccc2O[C@@H]1CN(C)C(=O)NC1CCCCC1
43	18[16.7 µM]	0	C[C@H](CO)N1C[C@H](C)[C@H](CN(C)Cc2ccc(Cl)c(Cl)c2)Oc2c(NC(=O)c3nc4ccccc4s3)cccc2C1=O
44	-67[16.7 µM]	10	Cc1ccc(S(=O)(=O)Nc2ccc3c(c2)CC(=O)N([C@@H](C)CO)C[C@H](C)[C@H](CN(C)Cc2ccc(Oc4ccccc4)cc2)O3)cc1
45	0[16.7 µM]	22	CN(C)CCCNC(=O)C[C@H]1CC[C@@H]2[C@@H](COc3ccc(NC(=O)c4ccc5c(c4)OCO5)cc3C(=O)N2C)O1
46	-8[16.7 µM]	9	C[C@@H]1CCCCO[C@@H](CN(C)C)[C@@H](C)CN([C@@H](C)CO)C(=O)c2cc(NC(=O)Nc3cccc4ccccc34)ccc2O1
47	0[16.7 µM]	18	C[C@H](CO)N1C[C@H](C)[C@@H](CN(C)Cc2ccc(Oc3ccccc3)cc2)Oc2ccc(NC(=O)Cn3cnnn3)cc2CC1=O
48	-10[16.7 µM]	3	COc1ccc(NC(=O)Nc2cccc3c2O[C@H](CN(C)S(=O)(=O)c2ccccc2)[C@H](C)CN([C@@H](C)CO)C3=O)cc1
49	-6[16.7 µM]	-5	C[C@@H]1CCCCO[C@H](CN(C)S(=O)(=O)c2ccccc2)[C@@H](C)CN([C@H](C)CO)C(=O)c2cc(NC(=O)CCCN(C)C)ccc2O1
50	11[16.7 µM]	0	C[C@H](CO)N1C[C@H](C)[C@H](CN(C)Cc2ccncc2)Oc2c(NC(=O)c3ccncc3)cccc2C1=O
51	7[16.7 µM]	8	COc1ccc(S(=O)(=O)Nc2cccc3c2O[C@H](CN(C)S(C)(=O)=O)[C@H](C)CN([C@H](C)CO)C3=O)cc1
52	-7[16.7 µM]	-11	C[C@@H]1CCCCO[C@@H](CN(C)Cc2ccccc2)[C@@H](C)CN([C@H](C)CO)C(=O)c2cc(NC(=O)c3ccccc3)ccc2O1
53	-11[16.7 µM]	-3	Cc1ccc(S(=O)(=O)N(C)C[C@H]2Oc3c(NS(C)(=O)=O)cccc3C(=O)N([C@@H](C)CO)C[C@H]2C)cc1
54	-55[16.7 µM]	15	C[C@H](O)C#Cc1ccc2c(c1)O[C@H](CN(C)C(=O)Nc1ccccc1)[C@@H](C)CN([C@@H](C)CO)S2(=O)=O
55	8[16.7 µM]	13	C[C@H](CO)N1C[C@H](C)[C@@H](CN(C)CC2CCCCC2)Oc2ccc(N(C)C)cc2CC1=O
56	0[16.7 µM]	7	COc1ccc(S(=O)(=O)Nc2ccc3c(c2)C(=O)N([C@@H](C)CO)C[C@@H](C)[C@@H](CN(C)Cc2ccncc2)OCCCC[C@H](C)O3)cc1
57	11[16.7 µM]	-8	O=C(O)C[C@@H]1CC[C@@H](NC(=O)c2ccccc2F)[C@@H](CO)O1
58	0[16.7 µM]	5	Cc1noc(C)c1S(=O)(=O)Nc1ccc2c(c1)CC(=O)N([C@H](C)CO)C[C@H](C)[C@H](CN(C)S(C)(=O)=O)O2
59	111*[16.7 µM]	-11	C[C@H](CO)N1C[C@H](C)[C@H](CN(C)S(=O)(=O)c2ccc(Cl)cc2)Oc2ccc(NC(=O)Nc3ccc4c(c3)OCO4)cc2C1=O
60	-2[16.7 µM]	5	C[C@@H]1CN([C@@H](C)CO)C(=O)Cc2cc(NC(=O)c3ccncc3)ccc2O[C@@H]1CN(C)Cc1ccc(-c2ccccc2)cc1
61	-21[16.7 µM]	-8	C[C@@H]1CN([C@@H](C)CO)C(=O)c2cccc(N(C)C)c2O[C@H]1CN(C)Cc1ccc2c(c1)OCO2
62	-14[16.7 µM]	-11	O=C(N[C@@H]1C=C[C@H](CC(=O)N2CCOCC2)O[C@@H]1CO)c1ccc2c(c1)OCO2
63	68*[16.7 µM]	4	C[C@H]1CCCCO[C@@H](CN(C)Cc2ccccc2)[C@@H](C)CN([C@@H](C)CO)C(=O)c2cc(NC(=O)Nc3ccc(C(F)(F)F)cc3)ccc2O1
64	4[16.7 µM]	12	CN1C(=O)c2cc(NC(=O)C3CC3)ccc2OC[C@H]2O[C@H](CC(=O)NCCc3ccncc3)CC[C@H]21
65	2[16.7 µM]	37	CNC[C@@H]1OCCCC[C@H](C)Oc2ccc(NC(=O)Nc3ccc(F)cc3)cc2C(=O)N([C@H](C)CO)C[C@@H]1C
66	0[16.7 µM]	-14	C[C@@H]1CN([C@@H](C)CO)C(=O)c2cc(NC(=O)Nc3cccc4ccccc34)ccc2O[C@@H](C)CCCCO[C@@H]1CN(C)Cc1ccc2c(c1)OCO2

Two compounds picked at random from the list so far, as already listed:
no.	Env fusion inh	UUG fidelity	Structure
62	-14[16.7 µM]	-11	O=C(N[C@@H]1C=C[C@H](CC(=O)N2CCOCC2)O[C@@H]1CO)c1ccc2c(c1)OCO2
63	68*[16.7 µM]	4	C[C@H]1CCCCO[C@@H](CN(C)Cc2ccccc2)[C@@H](C)CN([C@@H](C)CO)C(=O)c2cc(NC(=O)Nc3ccc(C(F)(F)F)cc3)ccc2O1

An excerpt. The share of hits here may be higher or lower than overall.
